Screening data as filed in PubChem BioAssay.
GIRK2 activ: opens human GIRK2 potassium channels. P48051. HEK293-GIRK2 thallium flux, Thallos fluorescence. calls only for hits at 25 µM. 63,000 tested, 0.05% active;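 active = among the strongest 0.2% of first-round signals and kept after retests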;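 also: first round at about 10 µM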
Target sequence (P48051 whole entry, looked up): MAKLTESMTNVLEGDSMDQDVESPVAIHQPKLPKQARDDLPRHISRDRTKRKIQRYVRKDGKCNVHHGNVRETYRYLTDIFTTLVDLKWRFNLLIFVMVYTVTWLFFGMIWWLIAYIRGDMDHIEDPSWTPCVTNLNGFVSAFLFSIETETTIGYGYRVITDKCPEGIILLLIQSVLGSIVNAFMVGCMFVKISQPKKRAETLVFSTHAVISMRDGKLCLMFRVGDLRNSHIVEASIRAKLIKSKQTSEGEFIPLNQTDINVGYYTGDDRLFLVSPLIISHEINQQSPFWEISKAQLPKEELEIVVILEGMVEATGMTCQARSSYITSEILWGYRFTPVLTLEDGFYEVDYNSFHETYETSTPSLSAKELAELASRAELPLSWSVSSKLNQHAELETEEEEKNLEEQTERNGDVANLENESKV
Calls only.

What do the screens show for `O=C(c1ccccc1Br)N1CC(c2nc(-c3ccncc3)no2)C1`?
GIRK2 activ: inactive

How did O=C(Nc1ccccc1)Nc1ccc2c(c1)C(=O)Nc1ccccc1O2 do in these assays?
GIRK2 activ: inactive

Results for COc1ccccc1CNC(=O)Cn1cnc2c(-c3ccc(Cl)cc3)csc2c1=O ?
GIRK2 activ: inactive

What do the screens show for `COc1ccc(NC(=O)CSc2ncnc3nc(N4CCCC(C)C4)sc23)cc1Cl` (configuration not stated)?
GIRK2 activ: inactive

How did CCCCC[C@H](O)/C=C/[C@@H]1[C@@H](C/C=C\CCCC(=O)NCCO)[C@@H](O)C[C@H]1O do in these assays?
GIRK2 activ: inactive

Results for Cc1noc(C)c1CC(=O)NCc1nc(-c2ccccc2)no1 ?
GIRK2 activ: inactive

How did Cc1ccc(C)c(-c2csc(NC(=O)C3CCN(S(=O)(=O)c4ccc(F)cc4)CC3)n2)c1 do in these assays?
GIRK2 activ: inactive

What do the screens show for `CCSc1ccccc1C(=O)N1CCC(S(=O)(=O)Cc2ccco2)CC1`?
GIRK2 activ: inactive

How did COC(=O)c1sccc1S(=O)(=O)NCC#CCOc1ccc2c(c1)OCO2 do in these assays?
GIRK2 activ: inactive

How did Cn1cccc(C(=O)Nc2ccc(CN3CCN(c4ccccn4)CC3)cc2)c1=O do in these assays?
GIRK2 activ: inactive

How did Cc1cc(-n2c(=O)c3sccc3n(Cc3c(C)noc3C)c2=O)ccc1F do in these assays?
GIRK2 activ: inactive

Results for COC(=O)N1CCN(CCNC(=O)Nc2cc(Cl)ccc2OC)CC1 ?
GIRK2 activ: inactive

How did Cc1cc(NC(=O)CN2CCc3nc(NC(=O)c4ccco4)sc3C2)no1 do in these assays?
GIRK2 activ: inactive

What do the screens show for `O=C(CSc1nnc(CCc2nc3ccccc3[nH]2)o1)NCCn1nc(-c2ccco2)ccc1=O`?
GIRK2 activ: inactive

Results for O=C(NC1CC(=O)N(C2CC2)C1)c1cnc2ccccc2n1 (configuration not stated) ?
GIRK2 activ: inactive

Results for CN(C(=O)CN1CCC(c2nnc(C(F)(F)F)o2)CC1)c1ccccc1 ?
GIRK2 activ: inactive

What do the screens show for `COc1nn(C)cc1C(=O)Nc1ccc(C(=O)NCc2ccc3c(c2)OCO3)cc1`?
GIRK2 activ: inactive

Results for O=C(Cn1cnc2ccccc21)N1CCC(c2nnc(-c3ccco3)o2)CC1 ?
GIRK2 activ: inactive

What do the screens show for `O=C(Oc1ccc2c(-c3cc4cc(Cl)ccc4oc3=O)cc(=O)oc2c1)C1CC1`?
GIRK2 activ: inactive

What do the screens show for `COc1cc(/C=C/C(=O)OC2CC(OC(C)=O)C(OC(C)=O)C3C2CCC2C(=O)OC(c4ccoc4)CC23C)ccc1O[C@@H]1O[C@H](CO)[C@@H](O)[C@H](O)[C@H]1O` (some centres not stated)?
GIRK2 activ: inactive

A stretch from further up, for reference:
What do the screens show for `COc1ccc(NC(=O)CSc2ncnc3nc(N4CCCC(C)C4)sc23)cc1Cl` (configuration not stated)?
GIRK2 activ: inactive

How did CCCCC[C@H](O)/C=C/[C@@H]1[C@@H](C/C=C\CCCC(=O)NCCO)[C@@H](O)C[C@H]1O do in these assays?
GIRK2 activ: inactive

Results for Cc1noc(C)c1CC(=O)NCc1nc(-c2ccccc2)no1 ?
GIRK2 activ: inactive

How did Cc1ccc(C)c(-c2csc(NC(=O)C3CCN(S(=O)(=O)c4ccc(F)cc4)CC3)n2)c1 do in these assays?
GIRK2 activ: inactive

What do the screens show for `CCSc1ccccc1C(=O)N1CCC(S(=O)(=O)Cc2ccco2)CC1`?
GIRK2 activ: inactive

How did COC(=O)c1sccc1S(=O)(=O)NCC#CCOc1ccc2c(c1)OCO2 do in these assays?
GIRK2 activ: inactive

How did Cn1cccc(C(=O)Nc2ccc(CN3CCN(c4ccccn4)CC3)cc2)c1=O do in these assays?
GIRK2 activ: inactive

How did Cc1cc(-n2c(=O)c3sccc3n(Cc3c(C)noc3C)c2=O)ccc1F do in these assays?
GIRK2 activ: inactive

Results for COC(=O)N1CCN(CCNC(=O)Nc2cc(Cl)ccc2OC)CC1 ?
GIRK2 activ: inactive

How did Cc1cc(NC(=O)CN2CCc3nc(NC(=O)c4ccco4)sc3C2)no1 do in these assays?
GIRK2 activ: inactive

What do the screens show for `O=C(CSc1nnc(CCc2nc3ccccc3[nH]2)o1)NCCn1nc(-c2ccco2)ccc1=O`?
GIRK2 activ: inactive

Results for O=C(NC1CC(=O)N(C2CC2)C1)c1cnc2ccccc2n1 (configuration not stated) ?
GIRK2 activ: inactive

Later entries:
What do the screens show for `OCc1nc2ccccc2n1Cc1c(Cl)cccc1Cl`?
GIRK2 activ: inactive

Results for O=C(CN1CCC(c2nc(-c3ccc(F)cc3)no2)CC1)NC1CCCC1 ?
GIRK2 activ: inactive

What do the screens show for `CCc1nnc2ccc(N3CCN(C(=O)Nc4ccc(Cl)c(Cl)c4)CC3)nn12`?
GIRK2 activ: inactive

How did COCCn1c(=O)c2c(nc3n(-c4ccc(C)cc4C)c(-c4ccccc4)cn23)n(C)c1=O do in these assays?
GIRK2 activ: inactive

What do the screens show for `CCc1[nH]nc(S(=O)(=O)N2CCN(c3ccccc3Cl)CC2)c1C(=O)OC`?
GIRK2 activ: inactive

Results for O=C(CSc1nccn1-c1ccc(C(=O)NCc2ccc(F)cc2)cc1)NCCc1ccccc1 ?
GIRK2 activ: inactive

Results for CC(C)(C)OC(=O)COc1ccc2c(=O)c(-c3ccccc3)c(C(F)(F)F)oc2c1 ?
GIRK2 activ: inactive

How did O=C(c1cccnc1)N1CCC(CNS(=O)(=O)c2cccc(C(F)(F)F)c2)CC1 do in these assays?
GIRK2 activ: inactive

What do the screens show for `O=C(Cn1nc2c(N3CCOCC3)nccn2c1=O)NCc1ccccc1Cl`?
GIRK2 activ: inactive

How did O=C(NCc1cnn2ccccc12)C1(c2ccc(Cl)cc2)CCCC1 do in these assays?
GIRK2 activ: inactive

Results for CCn1nc(C(=O)Nc2cc(C)nn2-c2nc3ccccc3s2)cc1C ?
GIRK2 activ: inactive

Results for O=C(Cn1cnc2ccccc21)N1CCN(c2nc3c(C(F)(F)F)cccc3s2)CC1 ?
GIRK2 activ: inactive

What do the screens show for `COc1ccc(N2CC(c3nc4ccccc4n3CC(C)C)CC2=O)cc1` (configuration not stated)?
GIRK2 activ: inactive

Results for C/C(Cl)=C/Cn1c(N2CCC(C)CC2)nc2c1c(=O)[nH]c(=O)n2C ?
GIRK2 activ: inactive

Results for O=C(CCc1csc(NC(=O)Nc2ccccc2)n1)Nc1ccc(F)cc1 ?
GIRK2 activ: inactive

What do the screens show for `COc1ccc(N2CC(c3nc4ccccc4n3Cc3ccccc3C)CC2=O)cc1` (configuration not stated)?
GIRK2 activ: inactive

What do the screens show for `O=C(CNC(=O)c1ccc(=O)[nH]c1)NCC1CCCCC1`?
GIRK2 activ: inactive

Results for CC(C)NC(=O)c1ccc(Cn2c(SCC#N)nc3cc4c(cc3c2=O)OCO4)cc1 ?
GIRK2 activ: inactive

What do the screens show for `O=C(Cn1ccn2nc(-c3ccc(Cl)cc3)cc2c1=O)Nc1ccc(Cl)cc1F`?
GIRK2 activ: inactive

How did COc1cccc(/C=C2\Oc3cc(OS(=O)(=O)c4ccccc4)ccc3C2=O)c1OC do in these assays?
GIRK2 activ: inactive

How did COc1ccc(S(=O)(=O)N2CCN(C(=O)c3ccco3)CC2)cc1C(C)(C)C do in these assays?
GIRK2 activ: inactive

Results for O=C(NCc1cccs1)c1ccc2c(=O)n(-c3ccc(F)cc3)c(N3CCCC3)nc2c1 ?
GIRK2 activ: inactive

How did CCNc1cc(NCCNC(=O)c2cccs2)nc(C)n1 do in these assays?
GIRK2 activ: inactive

Results for COc1cccc(-c2noc(CN3C(=O)COc4ccccc43)n2)c1OC ?
GIRK2 activ: inactive

Results for CC(C)(C)c1ccc(NC(=O)c2c3c(nn2C2CCS(=O)(=O)C2)CCC3)cc1 (configuration not stated) ?
GIRK2 activ: inactive

What do the screens show for `CCOC(=O)C1CCN(c2nc(OCC(=O)Nc3ccc(OCC)cc3)cc(C(C)C)n2)CC1`?
GIRK2 activ: inactive

How did COc1ccccc1/C=C/C=C1\Oc2cc(OS(C)(=O)=O)ccc2C1=O do in these assays?
GIRK2 activ: inactive

What do the screens show for `CCc1ccc(S(=O)(=O)Nc2ccc3c(c2)CCCN3S(=O)(=O)c2ccc(OC)cc2)cc1`?
GIRK2 activ: inactive

Results for Cc1cc(C(O)CCNC(=O)c2ccc(OC(F)(F)F)cc2)c(C)o1 (configuration not stated) ?
GIRK2 activ: inactive

Results for COc1ccc(NC(=O)c2cc(=O)c(OCc3ccc(F)cc3)cn2C)cc1Cl ?
GIRK2 activ: inactive

How did O=C(NCC1(c2ccc(F)cc2)CC1)C1COc2ccccc2O1 (configuration not stated) do in these assays?
GIRK2 activ: inactive

Results for O=C(c1nnn(-c2ccccc2F)c1-c1ccccn1)N1CCSCC1 ?
GIRK2 activ: inactive

Results for Cc1cccc(-n2ncc3c(=O)n(CC(=O)N4CCCCCC4)cnc32)c1C ?
GIRK2 activ: inactive

What do the screens show for `Cn1c(=O)[nH]c(=O)c2c1ncn2CCCc1ccccc1`?
GIRK2 activ: inactive

What do the screens show for `Cn1nc(-c2cccs2)cc1C(=O)NCCn1nc(-c2ccco2)ccc1=O`?
GIRK2 activ: inactive

Results for O=C(NCCCn1ncccc1=O)c1cnn2c1OCCC2 ?
GIRK2 activ: inactive

How did O=c1c(=O)n(-c2ccccc2)ccn1Cc1cccc(F)c1 do in these assays?
GIRK2 activ: inactive

What do the screens show for `COc1ccc(C2c3c(oc4ccccc4c3=O)C(=O)N2CCN(C)C)cc1OC` (configuration not stated)?
GIRK2 activ: inactive

How did COc1ccc(CC(=O)N2CCC(CSCc3ccco3)CC2)cc1OC do in these assays?
GIRK2 activ: inactive

Results for O=c1cccnn1CCNS(=O)(=O)c1c(F)cccc1F ?
GIRK2 activ: inactive

Results for CC(C)NC(=O)Cn1nc(-c2ccccc2)c2sc(N3CCCC3)nc2c1=O ?
GIRK2 activ: inactive

How did CC(=O)Cn1c(CN2CCN(c3cccc(Cl)c3)CC2)nc2c1c(=O)n(C)c(=O)n2C do in these assays?
GIRK2 activ: inactive

How did Cn1c(SCC(=O)NCc2ccccc2)nc2cc(-c3ccccc3)sc2c1=O do in these assays?
GIRK2 activ: inactive

How did O=C(NCCCn1ccnc1-c1ccccc1)Nc1ccccc1Cl do in these assays?
GIRK2 activ: inactive

What do the screens show for `O=C(Cn1c(=O)c(N2CCCCC2)nc2ccccc21)Nc1ccccc1C(F)(F)F`?
GIRK2 activ: inactive

What do the screens show for `COc1ccc(-c2csc3c(=O)n(CC(=O)Nc4ccccc4C(F)(F)F)cnc23)cc1`?
GIRK2 activ: inactive

How did COC(=O)c1ccc(C(=O)OC)c(NC(=O)c2cc(C)oc2C)c1 do in these assays?
GIRK2 activ: inactive

How did COc1ccccc1OCC#CCNC(=O)c1cc(-c2ccccc2)n[nH]1 do in these assays?
GIRK2 activ: inactive

Results for CCOC(=O)Cn1c(=O)c2c(nc3n2CCN3c2ccc(OC)c(Cl)c2)n(C)c1=O ?
GIRK2 activ: inactive

How did COc1cccc2sc(N3CC(OC(=O)c4cccs4)C3)nc12 do in these assays?
GIRK2 activ: inactive

What do the screens show for `COc1ccc(CCn2c(C)cn3c4c(=O)n(Cc5ccccc5F)c(=O)n(C)c4nc23)cc1OC`?
GIRK2 activ: inactive

Results for O=C(Nc1ccc2c(c1)N(S(=O)(=O)c1ccc(F)cc1)CCC2)c1ccc(F)cc1F ?
GIRK2 activ: inactive

How did CC(C)C(=O)Nc1ccc(S(=O)(=O)NCCC(O)c2cccc3ccccc23)cc1 (configuration not stated) do in these assays?
GIRK2 activ: inactive

What do the screens show for `O=C(c1ccc2ncsc2c1)N1CCC(c2nnc(C3CC3)o2)CC1`?
GIRK2 activ: inactive

Results for O=C(c1cccc(F)c1)N1CCN(C2=NN=C(c3cccs3)CS2)CC1 ?
GIRK2 activ: inactive

Results for CSCC(C)(O)CNC(=O)C(=O)Nc1cccc(N2CCCCC2=O)c1 (configuration not stated) ?
GIRK2 activ: inactive

How did COc1cc(/C=C2\SC(=S)N(c3ccccc3Br)C2=O)ccc1O do in these assays?
GIRK2 activ: inactive

How did CS(=O)(=O)NCC1CCN(C(=O)c2cccnc2)CC1 do in these assays?
GIRK2 activ: inactive

What do the screens show for `Cc1ccc(OCC(=O)NCC(c2cccs2)N(C)C)cc1` (configuration not stated)?
GIRK2 activ: inactive

What do the screens show for `Cc1nnc(NC(=O)CSc2nnc(CCc3nc4ccccc4s3)o2)s1`?
GIRK2 activ: inactive

Results for O=C(NCCCS(=O)(=O)N1CCN(c2ccccc2)CC1)C1CC1 ?
GIRK2 activ: inactive

How did COC(=O)c1ccc2c(=O)n(-c3ccc(C)c(F)c3)c(N3CCSCC3)nc2c1 do in these assays?
GIRK2 activ: inactive

Results for CCOc1ccc(S(=O)(=O)N(Cc2ccsc2)Cc2ccco2)cc1F ?
GIRK2 activ: inactive

What do the screens show for `O=C(CCn1c(=O)[nH]c2cc3c(cc2c1=O)OCO3)NC1CCc2ccccc21` (configuration not stated)?
GIRK2 activ: inactive

What do the screens show for `Cn1c(=O)[nH]c(=O)c2c1nc(SCC(=O)O)n2Cc1ccc(F)cc1`?
GIRK2 activ: inactive

What do the screens show for `O=S(=O)(Nc1ccccn1)N1CCOCC1`?
GIRK2 activ: inactive

What do the screens show for `COc1ccc(C)cc1S(=O)(=O)N1CC(C)CC(C)C1` (configuration not stated)?
GIRK2 activ: inactive

Results for Cc1ccc(OCc2occc2C(=O)NC(C)C)cc1 ?
GIRK2 activ: inactive

How did CCCCn1c(=O)c2c(nc3n2CC(C)CN3c2cc(C)ccc2OC)n(C)c1=O (configuration not stated) do in these assays?
GIRK2 activ: inactive

How did O=C(NCCOc1ccc(F)cc1)C1COCC(=O)N1Cc1cccs1 (configuration not stated) do in these assays?
GIRK2 activ: inactive

How did O=C(c1cc(-c2ccc(F)cc2)n[nH]1)N1CCN(C(=O)c2cnn3ccccc23)CC1 do in these assays?
GIRK2 activ: inactive

How did O=C(CSc1nc(-c2ccc(Cl)cc2)cs1)NCc1ccc(C(=O)O)cc1 do in these assays?
GIRK2 activ: inactive

What do the screens show for `O=C(NCc1ncc(-c2ccccc2)[nH]1)c1nc2ccccc2s1`?
GIRK2 activ: inactive

What do the screens show for `CCCNC(=O)Cc1ccc(-n2c(=O)c3ccccc3n(CC(=O)NCc3ccco3)c2=O)cc1`?
GIRK2 activ: inactive

This is a subset; rates above refer to the full screens.
